# Bioassay records deposited in PubChem BioAssay by several laboratories.
# RAM inhibit = yeast RAM network inhibition | inhibition, % at 50 µM | S. cerevisiae dse1pr::URA3 reporter, 5-FOA growth OD615, 2 d; analog-sensitive cbk1-as2 kinase mutant strain | AID 868 | actives 1.8% (n = 190,000);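 active = inhibition above a set limit, 3 SD over mean compound inhibition, cut at about 8.4% in these data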;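 note: 0% = DMSO-only wells with no growth and 100% = 10 µM 1-NA-PP1 full growth; inhibition rescues growth on 5-FOA so higher OD means more RAM inhibition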
# DTT redox prof = compounds producing H2O2 with reducing agent – biochemical, NIH compound library profiling, artefact control for MLSCN library redox annotation, primary screen; actives 0.03% (n = 200,000); DTT-dependent redox cycling H2O2, phenol red/HRP absorbance; 100% = 100 µM peroxide control, 0% = buffer; AID 878; activation, % at 10 µM;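 active = activation of at least 50% relative to the plate's high and low controls in the primary single-dose screen; inactive = activation below 50%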;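 note: compound incubated with DTT at 0.8 mM final as the reducing agent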
# S1P3 antag = blocks the human S1P3 receptor; AID 485; Q99500; actives 0.27% (n = 170,000); CHO S1P3 NFAT-BLA reporter, FRET fluorescence, antagonist mode; inhibition, % at 4.98 µM;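 active = inhibition above the plate cutoff, the mean inhibition of test wells on that plate plus 3 SD, cut at about 28% in these data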;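 note: cells challenged with S1P at its EC80 of 0.8 µM; blue over green emission ratio from cleaved BLA substrate after 4 h stimulation; 0% = S1P-stimulated wells and 100% = unstimulated DMSO-only wells; some compounds past the cut are filed as inactive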
# Target sequence (Q99500 whole entry, looked up): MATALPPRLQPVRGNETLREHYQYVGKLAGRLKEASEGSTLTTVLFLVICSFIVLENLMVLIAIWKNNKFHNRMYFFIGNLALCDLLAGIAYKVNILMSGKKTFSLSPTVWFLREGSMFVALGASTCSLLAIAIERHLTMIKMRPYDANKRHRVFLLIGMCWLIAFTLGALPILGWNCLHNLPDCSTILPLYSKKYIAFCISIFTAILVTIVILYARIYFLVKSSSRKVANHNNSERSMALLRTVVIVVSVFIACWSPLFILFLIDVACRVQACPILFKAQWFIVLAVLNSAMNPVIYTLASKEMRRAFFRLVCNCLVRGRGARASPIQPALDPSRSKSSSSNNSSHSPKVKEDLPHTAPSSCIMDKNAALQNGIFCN
# G6PDH counter = L. mesenteroides G6PDH inhibition counter-screen | Purified L. mesenteroides G6PDH, diaphorase/resazurin coupled fluorescence, 45 min | inhibition, % at 5 µM | actives 0.12% (n = 200,000) | AID 1020
# L major viab = reduces viability of Leishmania major promastigotes; AID 1063; inhibition, % at 10 µM; resazurin fluorescence viability; actives 9% (n = 200,000);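 note: promastigotes grown with compound for 44 hours at 28 °C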
# Diaphorase inh = diaphorase inhibition or chemical oxidation counter-screen | diaphorase resazurin-to-resorufin fluorescence, NADH, 16 min; bacterial (C. kluyveri) enzyme, not human | inhibition, % at 20 µM | actives 0.69% (n = 190,000);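 active = primary screen inhibition at 20 µM above a set limit, cut at about 50% in these data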;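 note: plate controls were DMSO with full reaction for no effect and wells lacking NADH for full effect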
#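 controls = No-NADH positive control and DMSO neutral control | system = Clostridium kluyveri diaphorase enzyme | timing = reaction incubation of 16 min at room temperature | signal = resorufin fluorescence 544/590 nm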
# TLR4 MyD88 comp = TLR4-MyD88 interaction inhibition in cells. O00206+Q99836. HeLa CL3-4 TLR4/MyD88 BLA complementation, FRET ratio. inhibition, % at 8.4 µM. actives 0.18% (n = 200,000); in the data active = inhibition above about 25%;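 note: 0% = vehicle and 100% = reference inhibitor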
# Hsp70 activator = Hsp70 transcriptional activation, primary screen; HeLa Hsp70 promoter luciferase reporter, luminescence; scaled: vehicle 0, proteasome-inhibitor control 100%; activation, % at 10 µM; actives 0.04% (n = 200,000); AID 1203;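 active = activation above the mean across all tested compounds plus 3 SD, cutoff set per campaign, cut at about 5.5% in these data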;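 note: 100% = MG132 at 30 µM as the positive control and 0% = DMSO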
# * hit, by the source's call; . = no result given. Cut-off read from the data, not from the text of the source, unless noted: active = inhibition above about 50%; inactive = the rest. This is a subset. The share of hits here may be higher or lower than overall.
SMILES,RAM inhibit,DTT redox prof,S1P3 antag,G6PDH counter,L major viab,Diaphorase inh,TLR4 MyD88 comp,Hsp70 activator
COc1ccc(S(=O)(=O)Nc2cc3c4c(oc3c3ccccc23)CC(C)(C)CC4=O)cc1,6.4,2.4,.,18,100*,32,-5,-0.3
O=C(COc1ccc(F)cc1)Nc1nnc(-c2ccncc2)s1,2.5,-3.0,.,4,23,15,9,-0.1
CCCOc1ccc(C(=O)Nc2ccc(C)cc2[N+](=O)[O-])cc1,0.1,4.9,.,6,-8,3,-4,-0.1
Cc1cc2n(n1)SC(Nc1ccccc1)N2 (configuration not stated),0.1,2.7,0,-4,-2,15,9,-0.2
COc1ccc(S(=O)(=O)N2c3cc(C)ccc3OCC2C(C)(C)C)cc1 (configuration not stated),4.6,2.0,.,13,3,15,-7,-0.2
CCOc1c2ccc(C(=O)NCc3ccc(C)cc3)cc2nn1CCOC,-0.1,-6.2,.,10,-5,9,-3,-0.2
CCC(=O)Nc1ccc(/C(C)=N\NC(=O)c2ccc(C)s2)cc1,2.1,-4.2,.,3,96*,10,-4,-0.1
O=C(NCc1ccc2c(c1)OCO2)c1cc(-c2ccc(Cl)cc2Cl)on1,8.4,3.8,.,8,-7,-11,-16,0.0
Cc1cc(C)c(S(=O)(=O)Nc2c(C)[nH]c(=O)[nH]c2=O)c(C)c1,1.6,-8.0,.,5,-2,8,-3,0.0
COc1ccc(CCNc2nc(-c3ccco3)cc(C(F)(F)F)n2)cc1OC,10*,0.0,.,8,10,19,3,0.4
COc1ccc(/C=N/NC(=O)c2sccc2OCc2ccc(F)cc2)cc1OC,-0.4,-2.6,.,6,5,22,-2,-0.1
CC(=O)Nc1ccc(S(=O)(=O)NCCN2CCOCC2)cc1,2.1,-1.0,-23,0,-7,14,3,-0.2
CCOc1cc(NC(=S)Nc2cccc(OC)c2)c(OCC)cc1NC(=O)c1ccc(C)cc1,2.3,-5.1,.,3,-3,24,4,-0.2
Cc1cc(NC(=O)CSCCO)no1,1.2,0.3,.,3,-5,6,18,-0.3
CSc1cccc(NC(=O)CN(c2ccccc2)S(=O)(=O)N(C)C)c1,0.5,1.7,.,5,-2,13,-2,-0.6
CCOc1ccc(-n2c(Cc3ccccc3)nnc2SCc2c(C)noc2C)cc1,0.3,-1.2,-13,3,19,12,-10,-0.2
Cc1c(NC(=O)OCCNC(=O)COc2c(Cl)cccc2Cl)sc(=S)n1C,1.1,1.8,.,2,1,2,-4,-0.5
CC(Sc1ncnc2ccccc12)C(=O)Nc1ccc2c(c1)OCO2 (configuration not stated),1.5,-2.7,.,2,80*,9,2,-0.3
COc1ccc(C(CC(=O)Nc2ccc(F)cc2)c2ccccc2)cc1 (configuration not stated),1.6,1.7,.,0,9,14,-11,-0.4
COc1ccc(Cl)cc1NC(=O)C1CCCN(c2cc(C)nc3ncnn23)C1 (configuration not stated),2.0,3.2,-8,0,1,26,-4,-0.4
Cc1oc(-c2cccc(Cl)c2)[n+]([O-])c1C,1.2,3.3,-18,0,-4,5,-2,-0.4
Cc1ccc(S(=O)(=O)N(C)c2cc(S(=O)(=O)N3CCC(C)CC3)c(C)cc2C)cc1,6.2,1.0,.,14,77*,19,5,-0.3
O=C(Nc1ncc2c(n1)-c1ccccc1CC2)c1ccc(Cl)cc1,3.7,-3.6,.,12,6,13,-1,0.1
CCOc1ccc(N2CC(=O)N(c3ccc(OCC)cc3)CC2=O)cc1,1.9,-2.9,.,3,-4,10,5,0.5
Cc1cccc(NC(=O)CSc2n[nH]c(-c3ccncc3)n2)c1,1.5,-0.5,-1,5,-1,18,0,-0.2
CC(=O)Nc1cccc(NC(=O)c2cc(-c3cccnc3)nc3ccc(Br)cc23)c1,2.8,2.8,.,10,-1,-8,6,-0.3
CN(CCC#N)CC(=O)Nc1ccc(NC(=O)CN(C)CCC#N)cc1,0.0,1.4,4,6,4,-7,2,-0.6
CCC(CC)C(=O)N(c1ccc(F)cc1)C1C=CS(=O)(=O)C1 (configuration not stated),0.0,0.3,-11,-11,3,6,-17,0.0
O=C(Nc1ccc(F)cc1)c1cnc(-c2ccccc2)nc1-c1ccccc1,6.0,-7.4,.,5,-3,6,0,0.0
COc1ccc(C2NC(=O)c3sc4nc(C)c(C(C)=O)c(-c5ccc(Cl)cc5)c4c3N2)cc1 (configuration not stated),10*,-2.1,.,1,-2,6,5,-0.2
FC(F)(F)c1cc(-c2ccccc2)nc(N2CCOCC2)n1,2.1,0.0,.,10,1,15,4,-0.4
O=C(O)c1ccc(S(=O)(=O)NC2CCCc3ccccc32)cc1 (configuration not stated),5.4,3.1,-12,-4,-11,8,-5,-0.5
O=C1c2ccccc2NC(c2ccncc2)N1c1ccccn1 (configuration not stated),0.0,0.1,-41,10,-3,-3,6,0.0
Cc1ccccc1C(=O)N/C(=C/c1ccc(-c2cccnc2Cl)o1)C(=O)NCCCN1CCN(C)CC1,-1.1,0.7,.,4,-3,11,-17,0.1
CCOC(=O)c1c(NC(=O)c2c(Br)cnn2C)c(C#N)nn1-c1ccccc1,4.4,1.7,.,16,5,19,1,-0.3
CN(C)c1ccc(/C=N/N2C(=S)SC(C)(C)C2N(O)C(=O)Nc2ccc([N+](=O)[O-])cc2)cc1 (configuration not stated),-0.7,2.3,.,0,44,23,6,-0.2
CCOC(=O)CSc1nc2ccccc2c(=O)n1CC1CCC(C(=O)NCc2ccco2)CC1 (configuration not stated),2.5,2.6,.,8,-1,7,4,-0.3
CC(C)Sc1nc(O)c(Cc2ccccc2)c(=O)[nH]1,3.0,-0.1,.,3,-12,5,-8,-0.5
CC(C)C(NC(=O)c1ccc(C(C)(C)C)cc1)C(=O)O (configuration not stated),0.1,2.2,.,7,-8,12,0,-0.4
CCc1ccc(N(C(=O)c2snc(C(N)=O)c2N)C(C(=O)NCCC(C)C)c2c[nH]c3ccccc23)cc1 (configuration not stated),6.1,2.2,.,7,-5,5,-12,0.2

# Some of the entries so far, with two lines to a compound.
# The line under a structure holds: RAM inhibit | DTT redox prof | S1P3 antag | G6PDH counter | L major viab | Diaphorase inh | TLR4 MyD88 comp | Hsp70 activator
CC(C)Sc1nc(O)c(Cc2ccccc2)c(=O)[nH]1
 : 3.0 | -0.1 | . | 3 | -12 | 5 | -8 | -0.5
CC(C)C(NC(=O)c1ccc(C(C)(C)C)cc1)C(=O)O (configuration not stated)
 : 0.1 | 2.2 | . | 7 | -8 | 12 | 0 | -0.4

# Next entries follow.
SMILES,RAM inhibit,DTT redox prof,S1P3 antag,G6PDH counter,L major viab,Diaphorase inh,TLR4 MyD88 comp,Hsp70 activator
COc1ccc(-c2nc(CS(=O)(=O)CC(=O)NCCc3cc(OC)ccc3OC)c(C)o2)cc1,1.9,-5.7,27,10,9,18,-2,-0.4
CCOc1ccc2nc(NC(=O)c3ccc(S(=O)(=O)N4CCOCC4)cc3)sc2c1,7.2,2.2,4,5,-2,26,-8,0.0
CCn1c(SCC(=O)OC)nc2sc3c(c2c1=O)CCC3,2.4,-1.2,.,3,2,23,0,-0.1
CCCc1nc(SCC(=O)Nc2nnc(CC)s2)c2c(C)c(C)sc2n1,4.8,1.4,.,6,-6,6,-6,0.2
Cc1c(NC(=S)NC(=O)C(c2ccccc2)c2ccccc2)cccc1C(=O)O,5.2,0.8,.,3,-5,12,15,-0.2
O=c1[nH][nH]c(C(F)(F)F)c1C=Nc1cccc(Cl)c1,3.4,-4.0,.,-2,-9,0,-10,-0.3
CCOc1ccc(/C(O)=C2/C(=O)C(=O)N(CC3CCCO3)C2c2ccc(C)o2)cc1 (configuration not stated),5.3,0.3,-28,6,-6,15,-10,0.3
CCCCCNCc1cccc(Br)c1,3.2,-4.9,.,3,75*,10,-3,0.0
Cc1cc([N+](=O)[O-])nn1CC(=O)NNC(=S)Nc1ccc([N+](=O)[O-])cc1,3.2,-5.8,.,10,-5,62*,-5,-0.3
O=C(Cn1c(O)c(/C=C2\C=Nc3ccccc32)sc1=O)Nc1ccc2c(c1)OCO2,5.5,-7.0,.,1,-3,-17,16,-0.1
CCOC(=O)Cn1nc(C)c2c1CCCC2=O,1.4,2.2,.,2,0,8,-5,-0.2
COC(=O)c1nnn(-c2nonc2N)c1CSc1nc2ccccc2o1,5.5,-7.0,.,5,-2,13,-3,0.0
O=C(Nc1cccc(Cl)c1N1CCCC1)c1cccc(-c2cc3ccccc3oc2=O)c1,2.0,-2.9,.,5,3,15,-5,-0.1
CC(=O)n1cc(/C=N/NC(=O)c2sc(C)nc2C)c2ccccc21,0.9,1.5,.,5,1,-8,-9,-0.1
O=C(O)Cc1ccc(NC(=O)C2CCCCC2C(=O)O)cc1 (configuration not stated),1.2,1.3,-15,5,-3,-5,13,-0.2
O=C1Nc2ccc([N+](=O)[O-])cc2C1(O)N1CCCCCC1 (configuration not stated),1.6,-2.7,.,6,-3,7,-4,-0.1
COC(=O)CSc1nc(NC#N)nc(NC(C)C)n1,0.4,1.8,.,4,-6,6,9,-0.1
CC(=O)NC1CC2CCCC(C1)N2C(=O)Nc1ccccc1 (configuration not stated),0.1,-2.8,.,2,-7,0,-1,-0.2
CCOC(=O)C1CCN(C(=O)C2CCN(c3nc4ccc(OC)cc4s3)CC2)CC1,-1.3,-1.2,.,6,-1,9,-5,-0.2
CCCCCC1CC1C(=O)N/N=C/c1ccc(N(C)C)cc1 (configuration not stated),0.7,-7.3,.,-7,-2,31,-2,0.1

# Six compounds from above, sorted by the number in RAM inhibit, largest number first.
molecule	RAM inhibit
O=C1Nc2ccc([N+](=O)[O-])cc2C1(O)N1CCCCCC1 (configuration not stated)	1.6
O=C(O)Cc1ccc(NC(=O)C2CCCCC2C(=O)O)cc1 (configuration not stated)	1.2
CCCCCC1CC1C(=O)N/N=C/c1ccc(N(C)C)cc1 (configuration not stated)	0.7
COC(=O)CSc1nc(NC#N)nc(NC(C)C)n1	0.4
CC(=O)NC1CC2CCCC(C1)N2C(=O)Nc1ccccc1 (configuration not stated)	0.1
CCOC(=O)C1CCN(C(=O)C2CCN(c3nc4ccc(OC)cc4s3)CC2)CC1	-1.3

# (listing goes on)
SMILES,RAM inhibit,DTT redox prof,S1P3 antag,G6PDH counter,L major viab,Diaphorase inh,TLR4 MyD88 comp,Hsp70 activator
CCC(=O)N1CCc2cc(S(=O)(=O)NC(C(=O)NCc3ccc(F)cc3)C(C)C)ccc21 (configuration not stated),3.0,0.0,8,7,2,12,-1,-0.2
O=C(CCCCCn1c(=S)[nH]c2ccccc2c1=O)NCc1ccc2c(c1)OCO2,2.9,-8.6,.,0,-10,5,-4,0.1
CC(C)OCCCn1c(=S)[nH]c2ccc(N3CCOCC3)cc2c1=O,1.8,-1.6,.,26,-12,28,14,-0.2
Cc1ccc(S(=O)(=O)Nc2ccc(=O)n(Cc3ccc(Cl)c(Cl)c3)c2)cc1,5.9,0.9,.,15,-2,20,-10,0.5
Cc1csc(=S)n1-c1ccccc1,3.0,0.8,.,0,-5,4,-12,-0.3
CCCn1nc2cc(C(=O)NCc3ccccc3)ccc2c1OCC,-0.9,-2.4,.,13,1,-2,-1,-0.3
CC(C)Cn1c(-c2csc3c2CCCC3)n[nH]c1=S,0.9,1.4,.,8,-1,1,-1,-0.2
Cc1cccc(NC(=O)CSc2ncnc3nc[nH]c23)c1C,0.7,-9.0,.,-1,6,5,11,-0.1
Cn1c(SCC(=O)N2CCCC2)nnc1-c1ccc(S(=O)(=O)N2CCCC2)cc1,0.5,-3.0,.,1,-4,11,9,-0.1
CC(C)CNc1ncnc2c1sc1nc(N3CCOCC3)c3c(c12)CC(C)(C)OC3,0.8,0.4,.,3,-4,9,-11,-0.4
COc1cc(CNCCO)cc(Br)c1OCc1ccccc1Cl,-1.1,0.4,.,5,100*,5,-1,-0.3
COc1ccc(OC)c(-n2c(-c3ccc(C)cc3)n[nH]c2=S)c1,7.9,1.3,.,4,3,25,9,-0.3
